Screens (PubChem)
GIV Gai3 FP = inhibitors of GIV peptide binding to Galpha-i3, primary screen, biochemical, fluorescence polarization, FITC-GIV GBA peptide, rat Galphai3; Guanine nucleotide-binding protein G(i) subunit alpha-3 (Rattus norvegicus), P08753; 90 min; hits give low values; scaled: aluminum fluoride 0%, vehicle 100%; percent of control (FP), % (test concentration not listed); actives 0.42% (n = 210,000); AID 1224905, 2016;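 active = replicate mean at 85% of control or lower, very high polarization wells dropped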;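 note: wells of about 15 µL received 100 nL stock; the first replicate is given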
Target sequence (P08753 whole entry, looked up): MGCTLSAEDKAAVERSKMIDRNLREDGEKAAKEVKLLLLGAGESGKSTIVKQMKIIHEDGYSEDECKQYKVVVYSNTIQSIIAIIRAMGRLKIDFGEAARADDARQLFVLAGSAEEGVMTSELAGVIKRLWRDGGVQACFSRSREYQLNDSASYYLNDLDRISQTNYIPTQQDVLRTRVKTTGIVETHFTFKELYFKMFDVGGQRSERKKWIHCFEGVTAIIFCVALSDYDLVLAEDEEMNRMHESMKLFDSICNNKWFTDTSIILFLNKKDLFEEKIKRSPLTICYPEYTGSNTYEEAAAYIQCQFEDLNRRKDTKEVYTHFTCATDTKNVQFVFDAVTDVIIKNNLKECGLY
HCMV UL50-53 inh = inhibitors of HCMV UL50-UL53 interaction, biochemical, HTRF | normalized percent inhibition | inhibition, % (test concentration not listed) | actives 0.15% (n = 190,000);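 active = both replicates at 50% or more, plus weaker picks with an unusually low signal ratio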;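 note: stock transfer was 100 nL into about 20 µL; 0% = negative control wells and 100% = wells with untagged competitor protein; inactives centre near -12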
Sa growth inh = S. aureus growth inhibition at 42 and 30 °C, primary screen, LtaS inhibitor project, RN4220, two temperatures; OD600, 20 h, 42 °C; hits give low values; relative growth, % (test concentration not listed); actives 0.53% (n = 170,000); AID 720641, 2013;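 active = growth at 42 °C up to 50% and 20 or more points under that at 30 °C, or under 10% at both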;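 note: 300 nL library stock went into each well; scaled to the means of positive and negative controls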
Sa growth inh second temp = further read-out of Sa growth inh, marked with its call; relative growth, %; measured here: growth at 30 °C;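 optical density after 20 h as mean of two plates; 100% = untreated growth and lower means inhibition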
Numbers without * were called inactive; nt = not tested or not shown.

Letters: A = GIV Gai3 FP; B = HCMV UL50-53 inh; C = Sa growth inh; D = Sa growth inh second temp
1: CCOC(=O)c1c(NC(=O)c2ccc([N+](=O)[O-])cc2)sc(C(=O)Nc2ccc(C)c(Cl)c2)c1C
  A: 104	B: -13	C: nt	D: nt

2: COc1ccccc1Cn1ccn(Cc2ccc(C)cc2)c(=O)c1=O
  A: 102	B: -5	C: 110	D: 103

3: O=c1oc(-c2cccs2)nc2cccc(Cl)c12
  A: 98	B: nt	C: 93	D: 84

4: CC(C)n1c(C(O)c2ccc3c(c2)OCO3)nc2ccccc21 (stereo not given)
  A: 97	B: -1	C: 97	D: 82

5: COc1c2c(nc3occc13)C(CC=C(C)C)(OC)C(=O)C=C2 (stereo not given)
  A: nt	B: -53	C: 105	D: 90

6: COc1cccc(CC(=O)NCc2ccc3c(c2)CCN3C(C)=O)c1
  A: 100	B: nt	C: 130	D: 87

7: Cc1ccccc1C(=O)Nc1ccc(-c2nc(-c3ccccc3)no2)cc1
  A: 110	B: -12	C: nt	D: nt

8: CCCN(CCC)C(=O)Cn1c(=O)n(-c2ccccc2)c(=O)c2ccc(C(=O)NCc3ccc4c(c3)OCO4)cc21
  A: 99	B: 6	C: nt	D: nt

9: CCc1ccc(CCC(=O)Nc2sc3c(c2C(=O)OC)CCCC3)o1
  A: 104	B: -20	C: 112	D: 98

10: Cc1cc(-c2ccc(C)c(S(=O)(=O)N3CCCC(CN4CCc5ccccc5C4)C3)c2)on1 (stereo not given)
  A: 106	B: -6	C: nt	D: nt

11: CCCCC(=O)Nc1cccc(OCc2cc(=O)n3ccccc3n2)c1
  A: 112	B: nt	C: 78	D: 90

12: Cc1ccc(N2CC(c3nc(-c4ccc5c(c4)[nH]c(=O)c(=O)n5C)no3)CC2=O)cc1C (stereo not given)
  A: 104	B: -6	C: nt	D: nt

13: Cc1cc(-n2nc(C)cc2C)n2nc(-c3ccccc3)c(C)c2n1
  A: 108	B: -39	C: nt	D: nt

14: O=C1C=CC(=O)N1c1ccc(C2CCCCC2)cc1
  A: 108	B: -5	C: 20	D: 7

15: O=C(CSc1ncccc1C(=O)O)NCCC1=CCCCC1
  A: 107	B: nt	C: 105	D: 92

New compounds follow:
Letters: A = GIV Gai3 FP; B = HCMV UL50-53 inh; C = Sa growth inh; D = Sa growth inh second temp
16: O=C(Nc1ccc2nc(SCCOc3ccccc3Cl)sc2c1)c1ccc2c(c1)OCO2
  A: 97	B: -3	C: 96	D: 92

17: Cc1ccc(C)c(C(=O)Cn2nc(C(=O)O)c3ccccc3c2=O)c1
  A: nt	B: -7	C: 93	D: 98

18: COc1ccc(CNC2CCCC2)cc1O
  A: 101	B: -26	C: 89	D: 81

19: Cc1ccc(/C=C/c2onc(C)c2S(=O)(=O)N2CCC(C(=O)NCc3ccc(Cl)cc3)CC2)cc1
  A: 98	B: nt	C: 95	D: 86

20: CCc1nnc(SCc2nc(-c3ccccc3Cl)oc2C)c2cc3sc(C)cc3n12
  A: 106	B: nt	C: 122	D: 84

21: Cc1oc(-c2cccs2)cc1C(=O)O
  A: 114	B: nt	C: 95	D: 94

22: O=c1sc(N2CCN(c3ccc(Cl)cc3)CC2)nc2ccsc12
  A: 117	B: nt	C: 92	D: 86

23: Cn1c(C(C#N)C(=O)C(Sc2ccccc2)c2ccccc2)nc2ccccc21 (stereo not given)
  A: nt	B: -28	C: 111	D: 97

24: CCCCOc1ccc(C2(C)CC(=O)NC2=O)cc1 (stereo not given)
  A: 100	B: 9	C: 89	D: 114

25: COc1ccc(C(=O)NCc2ccc3c(c2)CCN3C(=O)c2cccc(C)c2)cc1OC
  A: 106	B: nt	C: 112	D: 94

26: CC1=CC(C)(C)n2c(O)c(N=NC(N)=S)c3cc(C)cc1c32
  A: 99	B: -24	C: 96	D: 76

27: CCOC(=O)c1[nH]c(C)c(CCC(=O)NC(C)c2ccccc2)c1C (stereo not given)
  A: 103	B: nt	C: 133	D: 85

28: Cc1ccc(N(C(=O)c2cccc(C)c2)S(=O)(=O)c2ccc(Cl)cc2)cc1
  A: 102	B: -50	C: 103	D: 77

29: C=CCn1cc(/C=N/N2C(=O)C3C4C=CC(C4)C3C2=O)c2ccccc21 (stereo not given)
  A: 105	B: -12	C: 109	D: 96

30: COc1ccc(C(=O)CC(c2ccccc2)C2C(=O)CCCC2=O)cc1 (stereo not given)
  A: 106	B: -28	C: 110	D: 75

Remaining list, next part
Letters: A = GIV Gai3 FP; B = HCMV UL50-53 inh; C = Sa growth inh; D = Sa growth inh second temp
31: O=C(O)c1ccc(N2C(=O)c3ccccc3C2=O)cc1
  A: 100	B: 3	C: 82	D: 90

32: CCOc1ccccc1NC(=O)c1cc2c(=O)oc3ccccc3c2s1
  A: 108	B: nt	C: 108	D: 93

33: Cc1ccc(NC(=O)CSC2=NC(=O)CC(=O)N2)cc1
  A: 99	B: -7	C: 93	D: 107

34: Cc1ccccc1-c1noc(-c2cccnc2N2CCN(C)CC2)n1
  A: 99	B: -13	C: nt	D: nt

35: CCOc1ccc(NC(=O)c2cc(S(=O)(=O)N3CCCC3)c[nH]2)cc1
  A: 106	B: nt	C: 106	D: 96

36: CC12CC(NC(=S)N1c1ccccc1)c1ccccc1O2 (stereo not given)
  A: 102	B: nt	C: 97	D: 84

37: COC(=O)c1cc(OC)c(OC)cc1NC(=O)C1CCCCC1
  A: nt	B: 12	C: 110	D: 96

38: NS(=O)(=O)c1ccc(O)c(N2C(=O)c3cccc4c(C(=O)c5ccccc5)ccc(c34)C2=O)c1
  A: 103	B: -72	C: nt	D: nt

39: CCc1cc(Br)ccc1NS(=O)(=O)CC
  A: 100	B: -24	C: 101	D: 99

40: CN(C)c1ccc(CNc2ncn[nH]2)cc1
  A: 99	B: nt	C: 91	D: 86

41: O=C(NCc1ccco1)C1CC(c2ccc(Cl)cc2)=NO1 (stereo not given)
  A: 101	B: -33	C: 96	D: 81

42: COc1ccc(-c2nc(CNS(=O)(=O)c3ccccc3F)cs2)cc1
  A: 103	B: nt	C: 113	D: 97

43: Cc1c(Cl)cccc1-n1ncc(C(=O)NC2CCCC2)c1C1CCN(C(=O)OC(C)(C)C)CC1
  A: 105	B: nt	C: 77	D: 86

44: CN(CCCNC(=O)c1nn(C)c2c1CSc1ccc(Cl)cc1-2)C1CCCCC1
  A: 103	B: -28	C: nt	D: nt

45: O=c1[nH]c(SCc2nc(-c3ccccc3Cl)no2)nc2c(-c3ccccc3)c[nH]c12
  A: 103	B: -29	C: nt	D: nt

3 entries from above, with two lines to a compound.
Values in the order: GIV Gai3 FP	HCMV UL50-53 inh	Sa growth inh	Sa growth inh second temp
(41) O=C(NCc1ccco1)C1CC(c2ccc(Cl)cc2)=NO1 (stereo not given)
  101	-33	96	81
(44) CN(CCCNC(=O)c1nn(C)c2c1CSc1ccc(Cl)cc1-2)C1CCCCC1
  103	-28	nt	nt
(40) CN(C)c1ccc(CNc2ncn[nH]2)cc1
  99	nt	91	86

Other structures
cpd	Compound	GIV Gai3 FP	HCMV UL50-53 inh	Sa growth inh	Sa growth inh second temp
46	CC(C)c1ccccc1NC(=O)C(Cc1c[nH]c2ccccc12)NC(=O)OC(C)(C)C (stereo not given)	106	20	113	104
47	CCN(CC)C(=O)CN1CCN(c2ccc(NC(=O)C3CCC3)c(C(=O)O)c2)CC1	97	-10	nt	nt
48	Cn1c(SCc2ccccc2Cl)nc2ccccc21	101	1	95	95
49	Cn1nnnc1SCC(=O)Nc1nccs1	nt	-23	83	87
50	O=C(c1ccccc1)N1CCNCC1	100	2	93	104
51	Cc1cc(=O)oc2cc(NC(=O)c3ccccc3C(=O)O)ccc12	101	-31	78	84
52	O=C(CCNS(=O)(=O)c1ccc2c(c1)OCCO2)Nc1nccs1	nt	-17	92	91
53	CC1CCN(C(=O)Cn2ncc3c4ccccc4n(Cc4ccc(Cl)cc4)c3c2=O)CC1	128	-33	109	88
54	O=C(C1CCN(S(=O)(=O)c2cccc3nsnc23)CC1)N1CCCCC1	nt	-80	87	96
55	Clc1cccc(Cl)c1CSc1cccs1	102	-46	96	86
56	COCC(=O)OCc1cc(=O)oc2cc(O)ccc12	nt	-78	103	92
57	COc1ccc2nc(Nc3nnc(-c4ccccc4)o3)sc2c1	104	nt	108	94

(cont.)
cpd	Compound	GIV Gai3 FP	HCMV UL50-53 inh	Sa growth inh	Sa growth inh second temp
58	Cc1ccnc(SCc2cccc(C(=O)O)c2)n1	104	4	102	94
59	CNC(=S)NNS(=O)(=O)c1ccc2ccccc2c1	102	-10	121	100
60	CC(OC(=O)C1COc2ccccc2O1)C(=O)N(C)c1ccccc1 (stereo not given)	nt	-2	100	96
61	CCCCNC(=O)n1c(=S)oc2cc(Cl)ccc21	103	13	55	20
62	CCOc1ccc(-n2nnc(C(=O)OCc3cc(C)ccc3C)c2C)cc1	101	-16	nt	nt
63	COc1ccccc1N1CC(C(=O)Nc2ccc(-c3nc(-c4ccc(C)cc4)no3)cc2)CC1=O (stereo not given)	107	8	nt	nt
64	O=C(NC(c1ccccc1)c1nnc(-c2ccc(Cl)cc2)o1)c1ccc(F)cc1 (stereo not given)	97	-1	nt	nt
65	O=C(O)CSCC(=O)N1CCCc2ccccc21	nt	-22	102	85
66	CCCNC(=O)C1Sc2nnc(-c3ccccc3)n2NC1c1ccccc1 (stereo not given)	103	3	98	98
67	CNC(=O)COC(=O)c1ccc(C#N)cc1	nt	-16	80	86
68	O=C(O)c1cccc(COCC(F)(F)F)c1	105	nt	122	95
69	O=C(NCC(c1cccnc1)N1CCN(Cc2ccccc2)CC1)C(=O)Nc1ccc(F)cc1 (stereo not given)	106	-2	109	83

Copied from the list:
Reading for cpd 63 under GIV Gai3 FP: 107
Reading for cpd 69 under GIV Gai3 FP: 106
Reading for cpd 67 under Sa growth inh second temp: 86

New compounds follow:
cpd	Compound	GIV Gai3 FP	HCMV UL50-53 inh	Sa growth inh	Sa growth inh second temp
70	O=C(CCNS(=O)(=O)c1ccc2[nH]c(=O)ccc2c1)NC1CCCC1	104	nt	111	98
71	NC(=O)CN1C(=O)S/C(=C\C=C\c2ccccc2)C1=O	99	-92	92	76
72	O=C(N=Nc1c(O)n(CN(Cc2ccccc2)Cc2ccccc2)c2ccccc12)c1ccco1	100	-140	90	88
73	CC1=CCC2CC1C(C)OC2(C)C (stereo not given)	99	28	101	76
74	COc1ccc(-c2cc(N3CCN(S(=O)(=O)c4ccc(Br)cc4)CC3)ncn2)cc1	96	-24	nt	nt
75	COc1cccc(CNC(=O)CN(C)S(=O)(=O)c2ccc3[nH]c4c(c3c2)CCCC4)c1	114	nt	122	104
76	COc1cc(-c2cc(C(F)(F)F)n3ncc(C(=O)O)c3n2)cc(OC)c1OC	100	-82	86	91
77	CN(C)c1nc(N)nc(Cn2c(=O)oc3ccc(Cl)cc32)n1	107	-18	105	77
78	Cc1sc2c(c1C)C(=O)NC(/C=C/c1ccc3c(c1)OCO3)N2 (stereo not given)	nt	0	89	84
79	COc1cc(OC)c(C(=O)CCC(=O)O)cc1OC	nt	-4	90	97
80	c1ccc(-c2nnc(CN3CCCCCC3)o2)cc1	107	nt	85	82
81	O=C1/C(=C/C=C/c2ccccc2)SC(=S)N1c1cccc(F)c1	nt	1	74	94

Going on with the list:
cpd	Compound	GIV Gai3 FP	HCMV UL50-53 inh	Sa growth inh	Sa growth inh second temp
82	Cc1ccc(NC(=O)N2CCSc3ncccc32)cc1Cl	106	-7	nt	nt
83	Cc1ccccc1OCC(=O)Nc1ccccc1C(=O)OCc1cc(=O)n2nc(C3CC3)sc2n1	104	nt	73	93
84	CC(=O)Nc1ccc(NC(=O)Cn2c(=O)cc(C)c3c(C)nn(-c4cccc(F)c4)c32)cc1	104	-32	100	90
85	COc1ccc(CN2C(=O)C=CC2=O)cc1	102	-2	57	38
86	C(=N\n1cnnc1)/c1nc2ccccc2[nH]1	nt	-47	126	80
87	CCN(CC)c1ccc(NC(C)C(=O)Nc2ccc(C)cc2)cc1 (stereo not given)	nt	-28	121	85
88	C(=Nc1ccccc1)c1ccc(-c2cccs2)s1	102	-44	92	96

Of the compounds above, eleven have a COOH group.
cpd	Compound	GIV Gai3 FP	HCMV UL50-53 inh	Sa growth inh	Sa growth inh second temp
15	O=C(CSc1ncccc1C(=O)O)NCCC1=CCCCC1	107	nt	105	92
17	Cc1ccc(C)c(C(=O)Cn2nc(C(=O)O)c3ccccc3c2=O)c1	nt	-7	93	98
21	Cc1oc(-c2cccs2)cc1C(=O)O	114	nt	95	94
31	O=C(O)c1ccc(N2C(=O)c3ccccc3C2=O)cc1	100	3	82	90
47	CCN(CC)C(=O)CN1CCN(c2ccc(NC(=O)C3CCC3)c(C(=O)O)c2)CC1	97	-10	nt	nt
51	Cc1cc(=O)oc2cc(NC(=O)c3ccccc3C(=O)O)ccc12	101	-31	78	84
58	Cc1ccnc(SCc2cccc(C(=O)O)c2)n1	104	4	102	94
65	O=C(O)CSCC(=O)N1CCCc2ccccc21	nt	-22	102	85
68	O=C(O)c1cccc(COCC(F)(F)F)c1	105	nt	122	95
76	COc1cc(-c2cc(C(F)(F)F)n3ncc(C(=O)O)c3n2)cc(OC)c1OC	100	-82	86	91
79	COc1cc(OC)c(C(=O)CCC(=O)O)cc1OC	nt	-4	90	97
